Screening data: PubChem BioAssay, several laboratories
BioA inh: M. tuberculosis BioA enzyme inhibitors, primary screen, biochemical, plate reader, single point, HTS; 7,8-diaminopelargonic acid synthase BioA (Mycobacterium tuberculosis); purified M. tuberculosis BioA enzyme; inhibition, % at 9.99 µM; 360,000 tested, 0.096% active; in the data active = inhibition above about 40%; inconclusive = no clear call, values can overlap the other calls
GDH-TPI inh: GDH-TPI coupling enzyme inhibitors, primary screen, artefact control for M. tuberculosis FBA inhibitor project, biochemical, absorbance, full deck | 360,000 tested, 1.2% active | GDH-TPI coupled enzyme counterscreen, NADH absorbance | inhibition, % at 4.8 µM;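 note: 0% = DMSO wells and 100% = wells lacking the enzyme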
VHR inh abs: VHR1 phosphatase inhibitors, primary screen, biochemical, absorbance, uHTS; inhibition, % at 13.3 µM; recombinant VHR phosphatase, pNPP absorbance; 290,000 tested, 0.52% active; Dual specificity protein phosphatase 3 (Homo sapiens), P51452; in the data active = inhibition above about 50%; note: some compounds called inactive have numbers as strong as hits
Target sequence (P51452 whole entry, looked up): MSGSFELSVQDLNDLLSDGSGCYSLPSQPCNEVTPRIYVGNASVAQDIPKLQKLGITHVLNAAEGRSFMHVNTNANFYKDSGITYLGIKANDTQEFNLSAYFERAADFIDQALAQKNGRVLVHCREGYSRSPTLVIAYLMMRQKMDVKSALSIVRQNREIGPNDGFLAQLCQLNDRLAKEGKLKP
FadD28 binding: inhibitors of FadD28 bisubstrate probe binding, primary screen, biochemical, fluorescence polarization, single point | inhibition, % at 12.5 µM | Mycobacterium tuberculosis FadD28 fatty-acid-AMP ligase | 360,000 tested, 0.22% active; in the data active = inhibition above about 8.5%, passing the limit was not always enough; inconclusive = no clear call, values can overlap the other calls
Rv3671c protease: Rv3671c serine protease inhibitors, primary screen, biochemical, fluorescence polarization, M. tuberculosis H37Rv. P9WHR9. inhibition, % at 5.96 µM. 320,000 tested, 0.048% active. AID 2606, 2010; in the data active = inhibition above about 38%;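 note: extracellular domain of Rv3671c used as enzyme; 0% = enzyme with DMSO and 100% = no enzyme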
BoNT-F LC inh: BoNT/F light chain protease inhibitors, primary screen, biochemical, flow cytometry, MLPCN library; Botulinum neurotoxin type F light chain protease (Clostridium botulinum); inhibition, % at 10 µM; 360,000 tested, 0.22% active; Multiplex microsphere protease cleavage assay; in the data active = inhibition above about 35%, passing the limit was not always enough; inconclusive = no clear call, values can overlap the other calls; note: plate controls were buffer without enzyme for full effect and enzyme alone for no effect
CCHFV vOTU inh: CCHFV vOTU protease inhibitors, primary screen, biochemical, Pep-AMC substrate, fluorescence; Crimean-Congo hemorrhagic fever virus L polyprotein viral ovarian tumor (vOTU) protease …; inhibition, % at 11.5 µM; 370,000 tested, 0.55% active; AID 651958, 2012; note: 0% = vehicle wells with enzyme and 100% = no enzyme wells
UGM FP inh: M. tuberculosis UGM enzyme inhibitors, primary screen, biochemical, fluorescence polarization, single point. 320,000 tested, 0.06% active. inhibition, % at 10 µM. AID 504406, 2011. UDP-galactopyranose mutase (Mycobacterium tuberculosis (strain ATCC 25618 / H37Rv)), …. purified UGM, fluorescence polarization probe displacement; in the data active = inhibition above about 10%, passing the limit was not always enough; inconclusive = no clear call, values can overlap the other calls
Target sequence (P9WIQ1 whole entry, looked up): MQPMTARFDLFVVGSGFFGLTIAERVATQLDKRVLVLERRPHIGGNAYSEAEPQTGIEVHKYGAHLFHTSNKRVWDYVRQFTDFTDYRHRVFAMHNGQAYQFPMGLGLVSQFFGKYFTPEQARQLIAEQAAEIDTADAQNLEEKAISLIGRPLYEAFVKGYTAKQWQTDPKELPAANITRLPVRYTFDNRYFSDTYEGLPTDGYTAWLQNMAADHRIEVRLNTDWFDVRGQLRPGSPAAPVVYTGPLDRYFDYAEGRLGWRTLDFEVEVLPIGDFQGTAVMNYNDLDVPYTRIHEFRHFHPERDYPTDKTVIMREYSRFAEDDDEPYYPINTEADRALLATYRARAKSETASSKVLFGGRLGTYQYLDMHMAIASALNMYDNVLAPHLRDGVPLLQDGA
The depositor's hits bear a star; ? = inconclusive; / = no result given. Cut-off read from the data, not from the text of the source, unless noted: active = inhibition above about 30%; inactive = the rest.

Order of results – BioA inh, GDH-TPI inh, VHR inh abs, FadD28 binding, Rv3671c protease, BoNT-F LC inh, CCHFV vOTU inh, UGM FP inh
Cc1ccc2c(c1)c(Sc1ccccc1)c(CC(=O)O)n2C
→ 0.7, -4.9, -0.1, -0.5, 10.7, -1.1, 12.7, 0.7
CC(C)(C)OC(=O)c1c(N)n(CCCN2CCCC2=O)c2nc3ccccc3nc12
→ 0.1, 10.6, 13.8, -0.8, -18.4, -8.2, -242.2, 0.5
O=C(c1ccccc1)C(O)(CN1CCCCC1)c1ccccc1 (stereo not drawn)
→ -1.3, 2.2, /, -1.1, /, -0.3, -5.2, /
Cc1ccc(C)c(S(=O)(=O)NC(C)CCc2ccccc2)c1 (stereo not drawn)
→ -1.8, -5.9, 3.0, -1.5, -4.9, 1.9, 24.9, -0.5
CCN1CCCC1CNC(=O)c1cc2cc(OC)c(OC)cc2[nH]1 (stereo not drawn)
→ /, 8.1, 8.8, -0.4, -3.1, -14.6, -69.7, -1.6
O=C(CCSCCc1ccncc1)NCCCN1CCOCC1
→ 1.4, -4.5, 35.7, -0.8, -5.6, 7.6, 12.0, -0.3
O=C(O)COc1ccc(/C=N/Nc2nc(Nc3ccccc3)nc(N3CCCCC3)n2)cc1
→ 1.0, 10.1, 13.9, -1.0, 0.1, -4.5, -1.5, 3.5
CCCCn1c(N)c(N(C)C(=O)c2cc3c(F)cccc3s2)c(=O)[nH]c1=O
→ 5.8, -4.2, /, -3.1, -2.1, -3.4, 0.6, -0.5
COCCNC(=O)[C@H]1N2C(=O)c3ccccc3C2SC1(C)C (stereo partly drawn)
→ -1.9, -5.7, 1.9, /, 0.5, -14.7, 6.9, 1.2
Cc1ccc(C)c(N2N=C(C(=O)NCCN3C(=O)S/C(=C\c4cccnc4)C3=O)CCC2=O)c1
→ -1.3, 5.6, /, -0.8, 6.6, 2.9, 2.5, 1.9
O=C1N(c2ccc3c(c2)OCCO3)C(c2ccccc2)C1(F)F (stereo not drawn)
→ /, 3.8, 12.9, -4.8, 2.9, 10.9, -1.5, 0.4
Cc1cc(=O)[nH]c(/N=C(\N)Nc2ccc(Oc3ccccc3)cc2)n1
→ -0.6, -8.2, 15.0, -0.6, -4.6, -0.4, -4.1, 1.1
Cc1ccc(-c2csc3ncn(CC(=O)OC(C)C)c(=O)c23)cc1
→ -0.6, 8.9, 23.4, -5.1, -1.7, ?, -3.4, -1.0
CC(C)(C)C1CCC2(CC1)C(C#N)=C(SCC(=O)Nc1ccccc1)NC(=O)C2C#N (stereo not drawn)
→ 1.6, 14.2, 2.9, 6.9, -51.7, -5.6, 5.5, 1.5
COc1cc(OC)c(OC)cc1CN(C)C(c1ccccc1)c1nnnn1-c1ccccc1C (stereo not drawn)
→ /, 2.5, 17.8, -3.8, -7.8, -11.4, 7.0, /
CCN(CC)S(=O)(=O)c1cc(NS(=O)(=O)c2cccc(Cl)c2)ccc1C
→ 4.3, -6.2, -6.7, 3.9, -5.8, 6.1, 16.6, 0.8
NCCOc1ccc(C2CCCCC2)cc1
→ /, 7.3, 12.0, -4.9, 6.1, -4.6, -5.6, -5.2
Cc1nc2ccc(N)nc2nc1C
→ /, 24.6, /, -4.0, /, 1.1, -394.9, /
CCOc1ccc(Cl)cc1/C=N/O
→ /, 10.8, 22.2, 0.3, 1.8, 0.6, -10.8, 4.3
COc1ccc(C(=O)OCC(=O)NC(C)(C)C)cc1[N+](=O)[O-]
→ /, -2.1, -5.7, -4.1, -5.0, -6.5, -9.1, -1.2
CCOc1cccc2sc(N(CCCN(C)C)C(=O)c3ccc(S(=O)(=O)N(CC)Cc4ccccc4)cc3)nc12
→ -2.1, 5.6, 7.7, -6.0, -6.0, -31.0, -0.1, 2.7
Cc1ccc(Cn2c(SCC(=O)NCC3CCCO3)nc3c(sc4ccccc43)c2=O)cc1 (stereo not drawn)
→ -3.9, -4.7, 15.5, -3.3, 3.6, -8.9, -0.6, 1.6
Cc1cccc(N/N=C(\C(N)=O)C2=NC(C)(C)Cc3ccccc32)c1
→ /, 23.8, 1.5, -0.1, -1.2, -5.5, 15.2, -2.2

Among those listed so far, these have an NH in an aromatic ring:
Order of results – BioA inh, GDH-TPI inh, VHR inh abs, FadD28 binding, Rv3671c protease, BoNT-F LC inh, CCHFV vOTU inh, UGM FP inh
CCN1CCCC1CNC(=O)c1cc2cc(OC)c(OC)cc2[nH]1 (stereo not drawn)
→ /, 8.1, 8.8, -0.4, -3.1, -14.6, -69.7, -1.6
CCCCn1c(N)c(N(C)C(=O)c2cc3c(F)cccc3s2)c(=O)[nH]c1=O
→ 5.8, -4.2, /, -3.1, -2.1, -3.4, 0.6, -0.5
Cc1cc(=O)[nH]c(/N=C(\N)Nc2ccc(Oc3ccccc3)cc2)n1
→ -0.6, -8.2, 15.0, -0.6, -4.6, -0.4, -4.1, 1.1

Quoted from the listing:
UGM FP inh result of `CCN1CCCC1CNC(=O)c1cc2cc(OC)c(OC)cc2[nH]1` (stereo not drawn) : -1.6
FadD28 binding result of `COc1ccc(C(=O)OCC(=O)NC(C)(C)C)cc1[N+](=O)[O-]` : -4.1
BoNT-F LC inh result of `NCCOc1ccc(C2CCCCC2)cc1` : -4.6
Rv3671c protease result of `O=C(O)COc1ccc(/C=N/Nc2nc(Nc3ccccc3)nc(N3CCCCC3)n2)cc1` : 0.1
Rv3671c protease result of `Cc1cccc(N/N=C(\C(N)=O)C2=NC(C)(C)Cc3ccccc32)c1` : -1.2

3 entries out of the list, arranged by heavy-atom count, largest number first.
Order of results – BioA inh, GDH-TPI inh, VHR inh abs, FadD28 binding, Rv3671c protease, BoNT-F LC inh, CCHFV vOTU inh, UGM FP inh
CC(C)(C)C1CCC2(CC1)C(C#N)=C(SCC(=O)Nc1ccccc1)NC(=O)C2C#N (stereo not drawn)
→ 1.6, 14.2, 2.9, 6.9, -51.7, -5.6, 5.5, 1.5
NCCOc1ccc(C2CCCCC2)cc1
→ /, 7.3, 12.0, -4.9, 6.1, -4.6, -5.6, -5.2
CCOc1ccc(Cl)cc1/C=N/O
→ /, 10.8, 22.2, 0.3, 1.8, 0.6, -10.8, 4.3

Some of the compounds tested. The share of hits here may be higher or lower than overall.
